Screening data (PubChem BioAssay)
FGF22 binding = shifts melting point of recombinant human FGF22. AID 651658. recombinant FGF22 thermal shift, SYPRO orange fluorescence; percent of sucrose octasulfate shift, DMSO zero. calls only at 9.99 µM. 340,000 tested, 1.5% active;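 active = melting point raised past a set limit in the mean and every replicate; inconclusive = no clear call; three in four hits are not shown here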
Target sequence (Q9HCT0 whole entry, looked up): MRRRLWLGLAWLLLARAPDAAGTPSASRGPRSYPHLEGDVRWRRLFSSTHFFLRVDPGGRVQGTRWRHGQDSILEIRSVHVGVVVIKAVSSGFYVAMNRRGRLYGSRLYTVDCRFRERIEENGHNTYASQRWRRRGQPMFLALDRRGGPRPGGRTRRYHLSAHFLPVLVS
Vif A3G = HIV-1 Vif–A3G interaction blockers – biochemical, TR-FRET, GST-Vif 1-94, biotin-A3G peptide, dose response retest, primary screen (AID 1117319). TR-FRET GST-Vif / biotin-A3G peptide binding; higher % means a stronger effect; test concentration not given here; strong numbers were not always called active. one-dose inhibition, %; IC50 in µM for titrated hits. 260,000 tested, 0.57% active;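 active = above the screen mean plus three standard deviations and confirmed in dose response; inconclusive = results disagree or hit not tested in dose response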;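 note: Vif residues 1-94 fused to GST binding biotinylated APOBEC3G peptide 110-148; 0% = full assay without inhibitor and 100% = GST in place of GST-Vif; retest series ran down from 100 µM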
ALR inh = human ALR oxidase inhibition via reduced H2O2; 290,000 tested, 3.8% active; inhibition, % (no concentration beside the values); purified ALR, DTT oxidation, H2O2 HRP-luminol luminescence; P55789;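 active = mean and each replicate at 75% or more; inconclusive = only one of the two met; inactive = neither met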;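 note: stock transfer was 7.5 nL into about 7.5 µL; 0% = neutral wells and 100% = wells with inactivated enzyme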
Target sequence (P55789 whole entry, looked up): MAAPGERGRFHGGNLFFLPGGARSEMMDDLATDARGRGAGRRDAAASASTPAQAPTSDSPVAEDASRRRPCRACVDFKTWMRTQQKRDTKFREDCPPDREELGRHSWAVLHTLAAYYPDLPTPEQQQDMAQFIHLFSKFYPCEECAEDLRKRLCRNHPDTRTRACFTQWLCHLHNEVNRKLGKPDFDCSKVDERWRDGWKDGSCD
Ecoli growth = E. coli growth inhibition; Escherichia coli growth, OD600, 23 h; stronger effect = lower value; OD600 absorbance (test concentration not listed); 330,000 tested, 0.21% active; AID 1053175;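 active = OD600 absorbance below the run mean of sample wells minus 3.6 SD, in any replicate, cut at about 0.56 in these data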;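 note: stock transfer was 300 nL into about 60 µL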
rRNA inh HTS = selective bacterial rRNA inhibition in E. coli; E. coli WT GFP vs humanized-ribosome RFP mutants, fluorescence, 24 h; stronger effect = lower value; DMSO median 0, no signal -100; AID 720706; 350,000 tested, 1.6% active; GFP signal change (wild-type ribosome), % (concentration not given with the values);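 active = significant combined selectivity score with lowered wild-type GFP, culture density cut under 30%, mutant RFP and density less affected; inactive = any of these conditions unmet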; note: one replicate is shown; some compounds called inactive have numbers as strong as hits
AF4-AF9 inh = MLL-AF4/AF9 protein interaction inhibition | P42568 | AlphaScreen, biotin-AF4 peptide binding to FLAG-AF9 | inhibition, % at 10 µM | 350,000 tested, 0.47% active | AID 651704;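 active = every replicate reaching a set inhibition limit, whatever the replicate mean, cut at about 25% in these data; inconclusive = mean inhibition reaches that limit but some replicates miss it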;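 note: 0% = plate neutral control median and 100% = total signal loss; the record names both 10 and 1 µM as test concentration; the first replicate is given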
HNF4A DNA FP = change in binding of human HNF4 alpha to DNA; P41235; HNF4a-FITC DNA binding, fluorescence polarization, 1 h; activity change, % at 10 µM; 360,000 tested, 0.3% active; AID 1224865; in the data active = activity change above about 30%, passing the limit was not always enough;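 note: controls were the assay level and a saturating level of protein; the project sought stronger binding though the title names inhibitors; some compounds called inactive have numbers as strong as hits; positive values seem to mean higher polarization but the record does not say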
Target sequence (P41235 whole entry, looked up): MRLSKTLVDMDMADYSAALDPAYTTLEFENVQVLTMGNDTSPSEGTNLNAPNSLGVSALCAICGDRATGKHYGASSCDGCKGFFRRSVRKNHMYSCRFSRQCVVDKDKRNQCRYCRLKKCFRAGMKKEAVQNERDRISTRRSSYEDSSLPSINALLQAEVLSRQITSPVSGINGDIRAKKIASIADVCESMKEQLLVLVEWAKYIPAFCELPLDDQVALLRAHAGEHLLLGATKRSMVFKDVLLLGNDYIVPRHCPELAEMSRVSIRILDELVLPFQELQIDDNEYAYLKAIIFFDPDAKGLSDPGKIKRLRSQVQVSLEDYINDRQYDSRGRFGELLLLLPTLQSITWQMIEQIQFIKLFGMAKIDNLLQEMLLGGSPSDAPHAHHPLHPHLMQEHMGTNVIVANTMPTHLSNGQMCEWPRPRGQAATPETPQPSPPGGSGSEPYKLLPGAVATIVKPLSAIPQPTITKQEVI
rRNA inh HTS OD600 = recorded beside rRNA inh HTS, whose call it bears; OD600 change, %; measured here: OD600 growth;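 optical density of the mix in the first replicate; 0 = DMSO median and -100 = no signal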
rRNA inh HTS RFP = further read-out of rRNA inh HTS, marked with its call; RFP signal change, %; measured here: RFP humanized mutant strains;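 first replicate; 0 = DMSO median and -100 = no signal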
Starred values were filed as active, the others as inactive; i = inactive; ? = inconclusive; · = not tested or not shown; & = joins results of further samples. These rows are one share of the data, so the mix of outcomes need not match the whole.

Values in the order – FGF22 binding	Vif A3G	ALR inh	Ecoli growth	rRNA inh HTS	rRNA inh HTS OD600	rRNA inh HTS RFP	AF4-AF9 inh	HNF4A DNA FP
O=c1c(Cc2ccc(F)cc2)c(O)ccn1CCc1ccccn1
 : i	-5.5%	·	0.69	9.4	8.7	-0.6	-0.5	0.3
CCCC#Cc1ccc2c(c1)O[C@H](CN(C)C(=O)c1cnccn1)[C@H](C)CN([C@H](C)CO)S2(=O)=O
 : i	·	·	·	4.3	8.6	0.9	3.1	·
O=C(Cn1c(=S)[nH]c2ccccc2c1=O)NCCc1ccccc1
 : i	-8.5%	-6.0	0.745	15.7	10.1	1.8	-0.7	-1.6
C[C@H](CO)N1C[C@H](C)[C@H](CN(C)C(=O)Cc2ccccn2)Oc2ncc(C#C[C@@H](C)O)cc2C1=O
 : i	·	·	·	5.5	8.4	0.8	-2.8	·
CCCNC(=O)C[C@@H]1CC[C@H]2[C@@H](COc3ccc(NC(=O)Nc4cccc(C)c4)cc3C(=O)N2C)O1
 : i	·	·	·	1.5	-8.6	1.0	0.7	·
COC(=O)c1ccccc1NC(=O)CSc1n[nH]c(C)n1
 : ·	3.5%	-2.9	0.739	·	·	·	·	-3.6
COc1ccc(/C=N/NC(=O)Cn2cc(C(F)(F)F)ccc2=O)cc1
 : i	?	-4.9	·	5.5	9.6	0.0	0.2	-0.6
CCOC(=O)C1(C)CCN1C(=O)c1cccs1 (stereo not drawn)
 : i	·	·	·	16.4	14.0	1.4	0.1	5.8
CC(=O)Nc1ccc(S(=O)(=O)Nc2ccc(=O)n(Cc3ccc(Cl)c(Cl)c3)c2)cc1
 : i	-5.6%	7.8	0.704	-1.7	-6.0	0.0	-0.8	-1.3
O=[N+]([O-])c1cccc(-c2nc(-c3ccccc3)c(-c3cccs3)[nH]2)c1
 : ·	-3.9%	62.1	0.77	·	·	·	·	-0.8
Cc1c(C(=O)Nc2ccc(F)cc2)sc2ncn(CC(=O)N3CCCCC3)c(=O)c12
 : i	·	1.0	0.719	-4.6	5.8	-2.0	-11.9	2.0
C=CCSc1nc2ccccc2c(=O)[nH]1
 : i	5.6%	-17.7	0.674	4.3	6.1	-0.6	5.8	-4.2
CC(=O)C(Cc1ccccc1)NC(=O)COc1ccc2c(c1)OCO2 (stereo not drawn)
 : i	1.1%	-3.7	0.724	2.2	4.9	1.3	-0.1	5.2
Cc1cccc(OCC(=O)NCc2nc(-c3ccccc3)no2)c1
 : i	·	6.9	0.692	5.6	7.7	-0.9	-1.7	-0.4
COc1cc(OC)cc(C(=O)Nc2ccc(CN3CCCCC3)cc2)c1
 : i	?	·	0.694	23.1	9.6	2.5	0.3	1.7
Cc1ccc(NC(=O)CC[C@H]2O[C@@H](n3cnc4c(NC(=O)c5ccccc5)ncnc43)[C@H](O)[C@@H]2O)cc1C
 : i	·	·	·	12.6	8.4	0.8	-7.5	0.9
Cc1ccccc1-c1ccc2c(c1)O[C@H](CN(C)C(=O)Nc1ccccc1)[C@@H](C)CN([C@@H](C)CO)S2(=O)=O
 : i	·	·	·	-3.8	-27.2	14.2	1.6	·
O=[N+]([O-])c1ccc(CS(=O)Cc2ccccc2)cc1 (stereo not drawn)
 : i	0.9%	·	·	-2.2	23.2	1.2	-1.2	-4.9
O=C(c1ccccc1-n1cccc1)N1N=C(C(F)F)CC1(O)C(F)F (stereo not drawn)
 : i	16.7%	1.8	0.685	·	·	·	0.2	-1.9
Cc1cc(/C(N)=N/OC(=O)c2ccc(Cl)cc2)no1
 : i	11.4%	-3.7	0.699	4.9	4.5	-1.8	·	1.8
CCOc1cccc(C2C(C(=O)c3ccco3)=C(O)C(=O)N2Cc2ccncc2)c1 (stereo not drawn)
 : ·	9.6%	1.9	0.734	·	·	·	·	-0.5
O=C(Nn1cnc2ccccc2c1=O)c1ccc(Br)cc1
 : i	-3.5%	·	0.692	7.9	2.2	-0.1	-4.0	2.6
Cc1cccc(NC(=O)CSc2nnc(CNC(=O)c3ccc(S(=O)(=O)N(C)C)cc3)n2-c2ccccc2)c1
 : ·	21.8%	-3.3	0.703	·	·	·	·	-3.5
C/C(N)=C(/C#N)C(=O)COC(=O)c1cc(-c2ccc(Br)cc2)nc2ccccc12
 : i	-9.2%	-20.6	0.705&0.705	11.5&14.8	7.5&2.4	2.3&-0.8	-1.6&-1.2	3.1&-3.4
COc1ccc(F)cc1-c1cc(NC(C)=O)c2ncc(-c3cccc(C(F)(F)F)c3)n2c1
 : i	·	·	·	8.3	16.1	6.5	-10.3	-0.2
Cc1cc(C)c(C)c(S(=O)(=O)N2CCC(C(=O)NNC(=O)c3ccccc3O)CC2)c1C
 : i	9.5%	·	0.645	-37.9	-71.5	-3.5	7.9	1.2
COc1ccccc1-n1cnc2cc(C(=O)NCc3ccco3)ccc21
 : ·	2.2%	·	0.745	·	·	·	·	-3.3
Cc1noc(C)c1S(=O)(=O)Nc1ccc2c(c1)C(=O)N([C@H](C)CO)C[C@H](C)[C@H](CN(C)S(C)(=O)=O)O2
 : i	·	·	·	0.9	3.8	-1.5	-3.3	·
COc1ccccc1NC(=O)/C(=C\c1cccs1)NC(=O)c1ccco1
 : i	?	-2.7	0.712	2.5	2.6	3.2	8.6	-1.2
COc1ccccc1CCC(=O)OCC(=O)c1c(N)n(CC(C)C)c(=O)n(C)c1=O
 : i	2.9%	11.1	0.678	-5.6	-26.0	-4.0	2.1	0.6
CCCCNC(=S)N/N=C1\C(=O)c2cccc3cccc1c23
 : ·	1.6%	-2.0	0.73	·	·	·	·	2.7
CC1CCCCN1Cc1c(O)ccc2c(=O)c(-c3nc4ccccc4s3)c(N)oc12 (stereo not drawn)
 : i	7.2%	-1.2	0.678	-11.4	-26.5	17.2	-1.0	3.9
CCc1ccccc1NC(=O)C1CCCN1S(=O)(=O)c1ccc2c(c1)n(C)c(=O)c(=O)n2C (stereo not drawn)
 : i	-0.9%	-3.8	0.717	3.8	6.6	-2.1	-3.3	-2.1
COc1cc(CNc2ccc3[nH]c(=O)[nH]c3c2)ccc1OCc1ccc(Cl)cc1
 : i	·	50.5	0.724	-10.7	-24.6	-2.7	-6.2	-0.8
COc1cc(CC(=O)Nc2sccc2C(N)=O)cc(OC)c1OC
 : ·	2.9%	-19.3	0.713	·	·	·	·	33.8*
CCCCCCC(=O)c1c(C)[nH]c(C(=O)OCC)c1C
 : ·	-1.0%	-6.8	0.702	·	·	·	·	-0.8
Cc1ccc(SCc2nc(-c3ccccn3)no2)cc1
 : ·	?	-0.9	0.689	·	·	·	·	0.9
NC(=O)CC(NC(=O)Cc1ccc(Cl)cc1)c1ccc(NCC2CC2)c([N+](=O)[O-])c1 (stereo not drawn)
 : i	·	-1.0	0.692	1.8	1.0	-2.8	-3.3	-1.4
C=CC[C@H](CC(=O)N(CCO)Cc1ccccc1)C(=O)NC[C@@H](OC(=O)[C@@H](CC=C)Cc1ccc(F)cc1)c1ccccc1
 : i	·	-1.2	·	2.4	-6.7	5.5	-0.8	-1.9
O=C(NCCCN1CCOCC1)c1cc(-c2ccc3c(c2)OCO3)nc2ccccc12
 : i	8.1%	-8.5	0.769	4.1	5.1	8.3	3.5	0.5
CCCCCNC(=O)C(C1CC1)n1c(=O)c(-c2ccco2)nc2ccccc21 (stereo not drawn)
 : i	·	·	·	6.3	12.7	3.1	-7.9	6.7
N#CCC(CNc1ncc(C(F)(F)F)cc1Cl)OC(=O)c1c(F)cccc1F (stereo not drawn)
 : ·	·	-3.5	0.687	·	·	·	·	2.6
CCN(CC(=O)NC1CCCC1)S(=O)(=O)c1ccc(C)cc1
 : ·	2.2%	-3.3	0.604	·	·	·	·	-2.8
CCCNC(=S)N1CCC(C(=O)c2ccc(F)cc2)CC1
 : i	2.3%	·	·	1.6	-12.3	-1.5	-0.9	-1.4
C[C@@H]1CN([C@H](C)CO)C(=O)c2cc(/C=C/c3ccccc3)cnc2O[C@H]1CN(C)Cc1cccc(C(=O)O)c1
 : i	·	·	·	-2.2	7.7	-2.9	-0.7	·
C[C@H](NC(=O)c1ncn2c1C(=O)N[C@@H](C)C2)c1ccccc1
 : i	3.4%	·	·	6.5	7.5	0.9	1.5	1.2
CN(C)C(=O)c1cc(-c2ccccc2)no1
 : i	-7.8%	·	0.638	14.7	14.1	1.9	1.1	3.3
O=S(=O)(/N=C(/Nc1cccc2ccccc12)c1ccccc1)c1ccc(F)cc1
 : i	·	-4.8	0.674	-1.6	-17.3	-3.9	-0.1	0.5
CCOc1ccc(OCCC(=O)OCC(=O)Nc2ccc3c(c2)OCO3)cc1
 : i	1.4%	-21.2	0.711	9.8	15.4	-1.1	-3.7	0.1
C[C@@H]1CN([C@@H](C)CO)C(=O)c2cc(-c3ccccc3F)cnc2O[C@H]1CN(C)Cc1cccc(F)c1
 : i	-3.0%	·	·	1.0&-2.9	-4.6&-4.5	2.2&1.8	4.0&3.7&0.0	4.0
CCCCNC(=O)COC(=O)c1cc(Br)ccc1Cl
 : i	·	-3.4	0.646	5.0	-2.3	3.4	-0.1	-3.1
O=C(Nc1cccc(C(F)(F)F)c1)c1ccc2nc(-c3ccco3)c(-c3ccco3)nc2c1
 : ·	0.69µM*	1.5	0.703	·	·	·	·	-6.9
COc1cc(C2C=C(c3cccs3)Nc3ncnn32)cc(OC)c1OC (stereo not drawn)
 : ·	4.3%	·	0.712	·	·	·	·	-122.2
C[C@H](CO)N1C[C@H](C)[C@@H](CN(C)C(=O)CCCN(C)C)OCCCC[C@H](C)Oc2ccc(NC(=O)CCCN(C)C)cc2C1=O
 : i	·	·	·	0.1	-2.4	-2.1	-4.9	·
COc1cc(/C=C2\SC(N)=NC2=O)ccc1OCC(=O)Nc1ccccc1C
 : i	-10.0%	2.7	0.67	-1.4	6.5	-0.3	0.2	6.8
O=C(c1ccco1)N1CCN(c2nc3ccsc3c(=O)s2)CC1
 : i	0.8%	·	0.712	-10.1	-9.4	-2.7	-2.1	-0.8
CS(=O)(=O)N(CC(=O)NCc1ccc(Cl)cc1)C1CCCCC1
 : ·	-2.0%	-4.0	0.728	·	·	·	·	-2.0
CCC(=O)N1C[C@@H](C)[C@H](OC)CN(C)C(=O)c2ccc(NC(=O)c3ccc(F)cc3)cc2OC[C@@H]1C
 : i	·	·	·	0.3	-2.2	0.0	-0.7	·
C[C@@H]1CCC(=O)N(CC[C@H](Sc2ccccc2)c2ccccc2)CC1
 : i	·	·	·	-40.0	-66.0	-10.8	-3.6	0.5
COC(=O)CCn1c(C)cc(C(=O)COc2ccccc2C(N)=O)c1C
 : ·	1.3%	2.5	0.68	-12.3	2.7	-4.9	2.4	-0.7

Next section:
Values in the order – FGF22 binding	Vif A3G	ALR inh	Ecoli growth	rRNA inh HTS	rRNA inh HTS OD600	rRNA inh HTS RFP	AF4-AF9 inh	HNF4A DNA FP
Cc1cc(NC(=O)C2C3C(=O)N(Cc4ccc(Cl)cc4)C(C(=O)NC(C)(C)C)C34C=CC2(C)O4)no1 (stereo not drawn)
 : ·	-1.3%	-3.3	0.683	·	·	·	·	1.5
O=C(NCCCn1ccnc1)C(=O)NCC1OCCN1S(=O)(=O)c1ccc2c(c1)OCCO2 (stereo not drawn)
 : i	5.0%	-5.9	0.697	5.1	4.8	-3.7	-4.3	1.6
C=CCN1C(=NC(=O)CC)SC2CS(=O)(=O)CC21 (stereo not drawn)
 : i	2.2%	-0.2	0.728	1.0	3.9	-3.0	2.2	5.5
Cc1cc(C)n2nc(SC(C)C(=O)N(C)C3CCCCC3)nc2n1 (stereo not drawn)
 : i	-6.7%	0.2	0.691	16.1	8.3	5.5	0.9	2.5
COC(=O)C[C@H]1CC[C@H]2[C@@H](COc3ccc(NC(=O)Nc4ccc(C#N)cc4)cc3C(=O)N2C)O1
 : i	·	·	·	-2.5	-4.9	-1.0	0.1	·
